Screens (PubChem)
D2 ag – human D2 receptor agonism in beta-arrestin assay. activation, % (no concentration beside the values). AID 624465. actives 0.084% (n = 360,000). DiscoveRx PathHunter D2 beta-arrestin, luminescence, 90 min; 100% = 57 uM dopamine signal. P14416; in the data active = activation above about 40%; inconclusive = about 15% to 40%; inactive = below about 15%; note: compound concentration not given in the record; the text of the record calls up to 30% inactive
Target sequence (P14416 whole entry, looked up): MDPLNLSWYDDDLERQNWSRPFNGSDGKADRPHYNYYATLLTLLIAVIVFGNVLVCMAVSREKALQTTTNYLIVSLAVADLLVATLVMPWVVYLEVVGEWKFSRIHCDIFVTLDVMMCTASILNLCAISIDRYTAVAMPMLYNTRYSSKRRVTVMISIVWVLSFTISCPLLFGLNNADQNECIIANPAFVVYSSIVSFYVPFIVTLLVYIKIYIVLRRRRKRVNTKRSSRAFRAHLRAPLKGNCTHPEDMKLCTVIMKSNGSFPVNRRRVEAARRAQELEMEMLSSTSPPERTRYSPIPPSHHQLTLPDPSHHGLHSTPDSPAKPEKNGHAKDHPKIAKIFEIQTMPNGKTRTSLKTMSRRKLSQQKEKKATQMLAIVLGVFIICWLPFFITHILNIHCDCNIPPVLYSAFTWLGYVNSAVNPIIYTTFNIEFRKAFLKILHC
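Agonist mode: compounds alone added to overnight-plated D2 PathHunter cells for 90 min at 37 C, with 57 uM final dopamine (EC100) defining full response. Beta-arrestin recruitment detected by chemiluminescent reagent, read after 1 h at ambient temperature.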
TRPML1 blocker – blocks the human TRPML1 channel. Q9GZU1. TRPML1-inducible cells, Ca2+ dye fluorescence, FDSS; active compounds read low; inhibition of EC80 agonist-evoked calcium signal. activity change, negative = inhibition, % (no concentration beside the values). actives 0.02% (n = 390,000). AID 624415; in the data active means activity change below about -50%; inconclusive means about -30% to -50%; inactive means above about -30%;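 note: stimulus is agonist 54-4 at its EC80 concentration; % is set by controls: 0 for no effect and ±100 for the full control effect; compound concentration not given in the record; the text of the record puts the active cut at -80%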
Target sequence (Q9GZU1 whole entry, looked up): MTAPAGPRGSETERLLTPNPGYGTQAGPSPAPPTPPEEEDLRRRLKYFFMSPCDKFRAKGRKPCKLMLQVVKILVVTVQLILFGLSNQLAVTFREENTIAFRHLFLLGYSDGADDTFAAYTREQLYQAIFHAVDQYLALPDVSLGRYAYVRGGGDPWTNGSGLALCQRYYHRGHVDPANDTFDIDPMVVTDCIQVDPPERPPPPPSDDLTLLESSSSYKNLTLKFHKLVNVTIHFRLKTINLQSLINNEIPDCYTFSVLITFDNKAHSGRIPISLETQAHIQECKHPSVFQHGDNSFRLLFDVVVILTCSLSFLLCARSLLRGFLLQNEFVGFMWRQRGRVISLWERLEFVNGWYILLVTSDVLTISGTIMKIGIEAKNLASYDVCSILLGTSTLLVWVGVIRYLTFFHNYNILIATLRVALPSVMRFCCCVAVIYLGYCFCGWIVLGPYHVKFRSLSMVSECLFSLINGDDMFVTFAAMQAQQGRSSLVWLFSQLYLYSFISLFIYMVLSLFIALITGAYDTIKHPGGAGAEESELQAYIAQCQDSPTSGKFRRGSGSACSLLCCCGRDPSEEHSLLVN
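TRPML1-DL cells, Tet-induced overnight (~16 h, 37 °C) at 1,500 cells/well, were loaded with Ca8 no-wash dye plus quencher for 45-90 min at room temperature. Compounds were pinned during FDSS kinetic reading; agonist 54-4 at EC80 (4 uM final) then added.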
Six1-Eya2 blk – blocks human Six1 binding to Eya2. Q15475+O00167. AlphaScreen GST-Six1/His-Eya2 binding, biochemical; active compounds read low; control for the full effect not named in the record. activity change, % (test concentration not listed). actives 0.56% (n = 360,000). AID 651725; in the data active = activity change below about -65%; inconclusive = about -30% to -65%; inactive = above about -30%; note: % is set by controls: 0 for no effect and ±100 for the full control effect
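GST-Six1 + His-Eya2 (5X stock: 250/500 nM); Tris pH 8.0, 300 mM NaCl, 0.05% BSA, 0.02% Tween 20; GSH donor/Ni acceptor beads; 1 h 37 °C dark; AlphaScreen readout.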
PINK1 modulator – PINK1 expression modulation | actives 0.2% (n = 410,000) | Potency, µM (series often up to 76.6 µM), inactives show at the top dose activation (PINK1 increase), hits mostly activators | PINK1 immunofluorescence, high-content cytometry, 24 h; active = well fitted activation curve with a large enough effect; inconclusive = small, poorly fitted or top-dose-only effect; inactive = flat fitted curve, though single readings scatter; cell line not stated here;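 note: potency is the fitted concentration of half-maximal effect; % of control where 0% means no effect; nearly all actives have a fitted effect of over 65% in size; a mitochondrial uncoupler was the plate control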
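Fluorescence from anti-PINK1 antibody, together with nuclear and cell stains, was scanned on a laser-scanning cytometer. Before staining, stable-line cells were incubated 24 hours with compounds at 5 concentrations; primary antibody 12 h at 10 degrees C.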
D2 potentiator – potentiates the human D2 dopamine receptor allosterically | P14416 | DiscoveRx D2 beta-arrestin cells, luminescence, 90 min; 100% = 57 uM dopamine signal | potentiation, % (concentration not given with the values) | actives 0.23% (n = 360,000); active = potentiation of 50% or more; inconclusive = 30% to 50%; inactive = 30% or less;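 note: compound concentration not given in the record; tested on top of an EC20 dose of dopamine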
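D2 cells co-treated with compound plus 50 nM dopamine (EC20) for 90 min at 37 deg C to detect potentiation. Beta-arrestin recruitment was read as enzyme-fragment luminescence after 1 h at ambient temperature. Full response was set by 57 uM dopamine.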
TRPML1 ag – activates the human TRPML1 channel | Q9GZU1 | TRPML1-expressing cells, Ca2+ dye fluorescence, FDSS; host cell line not named in the record; reference of the full effect not given here | activation, % (test concentration not listed) | actives 0.12% (n = 410,000); in the data active = activation above about 50%; inconclusive = about 30% to 50%; inactive = below about 30%; note: 0% is about no effect; the text of the record puts the active cut at 80%
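Agonist activity was taken from a 110 s kinetic Ca2+ dye read on the FDSS after pinning compounds onto TRPML1-DL cells. The cells were seeded at 1,500/well with Tet inducer, incubated about 16 h, then dye-loaded at room temperature.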
* hit, by the source's call; ? = inconclusive; / = no result given; & = joins results of further samples; [ ] = remark or other dose. Random draw from the library, and some 1% of all compounds hit somewhere here.

SMILES | D2 ag | TRPML1 blocker | Six1-Eya2 blk | PINK1 modulator | D2 potentiator | TRPML1 ag
CCOC(=O)c1ccc(S(=O)(=O)NNC(=O)c2cccc(N(C)C)c2)cc1 | -1.9 | 1 | 8 | 0.9% | ? | 0.4
CC(C)(C)C1CCc2[nH]nc(C(=O)O)c2C1 (stereo not given) | -1.6 | 12 | -5 | 4.7% | -35 | 1.0
CN1CCC(N(C)C(=O)c2cc(-c3ccccc3Cl)nc3ccccc23)CC1 | 0.7 | 16 | -3 | -0.2% | -29 | 0.8
COc1cc(O)c2c(=O)c3c(O)c(O)ccc3oc2c1OC | 3.1 | / | -9 | 1.0% | -12 | /
Cc1cc(C)c2oc(C(=O)N(Cc3cccs3)C3CCS(=O)(=O)C3)cc(=O)c2c1 (stereo not given) | -3.3 | 14 | 5 | 4.2% | -8 | 1.6
CCc1nc2nc(C)c(NS(=O)(=O)c3ccc(C)c(C)c3)c(=O)n2[nH]1 | 4.1 | 19 | 5 | -1.5% | -7 | 0.5
Cc1nc2sc3c(c2c(=O)[nH]1)CCC3 | -4.1 | -9 | -3 | 1.5% | 8 | -0.5
O=C(CSc1ccc2nnc(-c3ccc(F)cc3)n2n1)NCC1CCCO1 (stereo not given) | -3.1 | 2 | 4 | 7.5%[38.3 µM] | 1 | -0.2
COc1ccc(N2CCN(C(c3cc(OC)ccc3OC)c3nnnn3Cc3ccco3)CC2)cc1 (stereo not given) | -3.8 | 4 | ? | -1.0% | -18 | 0.9
CC(C)(C)c1ccc(OCC(=O)N2CCN(c3ncccn3)CC2)cc1 | -2.5 | 32 | 0 | 0.2% | -1 | 1.7
Cc1ccc(Cc2c(-c3cccc(Cl)c3)nc3ccc(C)cn23)cc1 | -6.7 | 55 | -2 | ? | -9 | 3.9
CCCCC(=O)Nc1ccc2c(c1)nc(CCN1CCN(C)CC1)n2C | -4.8 | 8 | 10 | 3.1% | -10 | -0.2
COc1ccc(C(=O)CSc2nnc(CC(=O)Nc3ccccc3OC)n2C)cc1 | -3.4 | 74 | 11 | -0.4% | 2 | -0.2
COc1ccc(C(=O)/C=C/Nc2ccc(S(=O)(=O)Nc3cc(OC)nc(OC)n3)cc2)c(OC)c1 | -1.6 | -15 | ? | 0.8% | 2 | 0.3
O=C(CCCSCCCC(=O)NN=Cc1ccccc1)NN=Cc1ccccc1 | 5.2 | 4 | -23 | 0.6% | -7 | 1.6
Cc1ccccc1C(=O)NNC(=O)C(=O)Nc1cccc(Cl)c1C | -3.7 | -14 | -2 | 8.7%[38.3 µM] | -13 | 0.3
COC(=O)c1ccc(OC(=O)C23CCC(C)(C(=O)O2)C3(C)C)cc1 (stereo not given) | -4.2 | -9 | 6 | 1.5% | -6 | -1.0
CCn1c(SCC(=O)NC2=NCCS2)nnc1C(C)NC(=O)c1ccccc1Br (stereo not given) | 5.5 | 1 | 2 | 2.7% | -3 | 0.2
Cc1nc2ccc(NC(=O)C3CCCCC3)cc2s1 | -2.6 | -5 | 5 | 0.4% | -4 | 0.2
O=C(c1ccc(F)cc1)N1c2nc(-c3ccco3)nn2C2(CCCCC2)[C@@H]2CCCC[C@@H]21 | / | 4 | / | 4.1% | / | 3.9
CCOC(=O)c1nnn2c1nc(SCC(C)=O)c1ccccc12 | 1.5 | -5 | -23 | -2.6% | -3 | -0.7
Cc1ccc(CC(=O)Nc2ccc(C(=O)N3CCOCC3)cc2)cc1 | -4.9 | 8 | -5 | -1.2% | -15 | 0.1
COc1cc(C(=O)NCC(c2ccccc2)N(C)C)ccc1OCc1c(C)noc1C (stereo not given) | 4.3 | 4 | 0 | 7.8% | -5 | -0.4
CC(C)C(=O)Nc1ccc2c3c(cccc13)CC2 | -13 | 12 | -3 | 5.4% | -30 | 0.7
CCCCCC1CC(=O)N(Cc2ccc(Cl)cc2)C(=O)N1 (stereo not given) | 0.1 | -3 | 12 | 1.2% | -6 | -1.2
CCCCN(CC)CCNC(=O)CN1C(=O)COc2ccc(S(=O)(=O)N3CCCC3)cc21 | 0.8 | -3&4 | 1 | 1.6%&0.5% | -3 | -0.3&1.9
CS(=O)(=O)c1ccccc1-c1nc(-c2cc(C(F)(F)F)cc(C(F)(F)F)c2)no1 | 2.5 | 7 | 6 | 2.7% | 8 | 0.2
Cc1ccc(-n2ncc(C(=O)NCCCN3CCCCC3)c2C2CCN(C(=O)OC(C)(C)C)CC2)cc1 | / | 12 | / | -1.3% | / | -0.2
O=C(O)CSc1nnc(-c2ccncc2)n1Cc1ccccc1 | -1.0 | -7 | 4 | 1.6% | -3 | -0.3
O=C(NNC(=O)c1ccc(Br)s1)c1cccc(Cl)c1 | -6.0 | 4 | 8 | 6.6% | -19 | -0.3
Cc1ncc(/C=C2\C(=O)Nc3ccccc32)[nH]1 | -0.9 | -8 | 1 | -0.4% | -7 | -0.1
COc1ccccc1C(=O)OCC(=O)Nc1ccc(OC(F)F)cc1 | -0.2 | 6 | 8 | 1.0% | -16 | 2.5
COC(=O)c1cc(C)ccc1/C=C1/Cc2c(C)cc(C)cc2C1=O | -4.6 | 4 | 0 | 2.2% | -20 | 3.0
O=C(Nc1ccc(Nc2ccccc2)cc1)c1ccc(Cl)c([N+](=O)[O-])c1 | 5.8 | 0 | ? | 1.3% | -12 | 0.9
CCC1=Nc2cc(C(=O)NCCN3CCCC3)ccc2Sc2ccccc21 | 2.4 | -7 | 0 | -0.5% | -10 | 1.2
Cc1ccc(Nc2nc(N)nc(N)c2S(=O)(=O)c2ccccc2)cc1 | / | -2 | / | 8.3% | / | 2.2
O=C(Oc1cccc(Oc2ccccc2)c1)N1CCOCC1 | 0.5 | 6 | 13 | -6.9%[38.3 µM] | -5 | 0.0
COC(=O)/C=C1/SC(=NC(=O)c2ccc(OC)cc2)NC1=O | 1.8 | -24 | 1 | 0.2% | -7 | -0.7
COc1ccc(S(=O)(=O)N(C)CC(=O)NCCCn2ccnc2)cc1Cl | -1.2 | 8 | 2 | 1.1% | -1 | -0.4
C[C@H]1[C@H](C)CC[C@]2(C(=O)O)CC[C@]3(C)C(=CC[C@@H]4[C@@]5(C)C[C@@H](O)[C@H](O)C(C)(C)[C@@H]5CC[C@]43C)[C@H]12 | -1.9 | 57 | 5 | 3.2% | -3 | -0.2
CCCCC(=O)N/N=C/c1ccc(-c2ccc([N+](=O)[O-])cc2)o1 | 2.9 | -5 | -10 | 7.9% | 9 | 3.0
CCOc1ccccc1C(=O)N/N=C/c1cccc2cccnc12 | -3.3 | -2 | ? | -0.8% | -24 | 0.3
CCn1nc(C(=O)OCC(=O)NC(C)C)c2ccccc2c1=O | -1.8 | 7 | 1 | 0.5% | -7 | -0.3
CC(C)N(CC#CCC(O)(c1ccccc1)C1CCCC1)CCO (stereo not given) | -5.8 | 19 | 2 | 0.3% | -7 | 0.2
CC(C)N(C(=O)CN1C(=O)NC(c2ccccc2)(c2ccccc2)C1=O)C(C)C | -0.3 | -8 | 8 | 5.5% | 0 | 1.4
CC1(C(=O)Nc2ccc(F)cc2F)CCN1C(=O)Cc1ccccc1Cl (stereo not given) | -2.7 | / | 4 | 1.0% | -4 | -1.0
O=C(CNC(=O)c1cccs1)Nc1ccc(N2CCOCC2)cc1 | 4.1 | -5 | 5 | 2.3% | -1 | 0.4
Cc1ccc(-c2nc(N)sc2-c2ccc(C)cc2)cc1 | -2.1 | 12 | -2 | -2.1% | 0 | 0.7
COC(=O)N1CCCCC1c1cc(C(=O)NCc2cccnc2)no1 (stereo not given) | -6.2 | -5 | 2 | 1.6% | -8 | -0.1
Cc1[nH]c2ccccc2c1/C=N/Nc1nc(Nc2ccccc2)nc(N2CCOCC2)n1 | -0.1 | -3 | -12 | -3.0% | 5 | 3.5
CCOc1ccc(CNCCSc2nnnn2C)cc1OC | / | 2 | / | 0.2% | / | -0.8
CCc1ccc(-c2nc(SCC(=O)N(CC)C3CCS(=O)(=O)C3)n[nH]2)cc1 (stereo not given) | 2.6 | 2 | -12 | 4.7% | 3 | 0.0
O=C(NCc1nc2ccccc2[nH]1)C1=C[C@@H](c2ccc(Br)cc2)C[C@@H](OCCCCO)O1 | 1.5 | -2 | -3 | 2.8% | -27 | -0.4
COc1ccc2oc(C(=O)OCC(=O)Nc3ccc(C)c(S(=O)(=O)N4CCOCC4)c3)c(C)c2c1 | -1.1 | 3 | -8 | 0.6% | -13 | -0.3
Cc1cccc(NC(=O)N2CCCCCC2)c1 | -2.1 | -8 | 14 | 0.0% | -5 | -0.6
COCCNC(=O)c1cc2c(=O)n(C)c3ccccc3c2n1C | 8.7 | 6 | 0 | 3.4% | 2 | 0.2
COc1ccc(S(=O)(=O)N2CCSC2C)cc1C (stereo not given) | -0.8 | -9 | -2 | 0.3% | -24 | 0.9
COc1cccc(C2CC(=O)Nc3c2c(=O)n(C)c2nc4ccccc4n32)c1OC (stereo not given) | / | 0 | / | 2.9% | / | 1.4
O=C(CCCc1ccccc1)Nc1ccccn1 | -2.3 | -2 | 8 | 4.2% | 2 | -0.3
O=C(NCCN1CCOCC1)C(=O)NCC1OCCCN1S(=O)(=O)c1ccc(F)cc1 (stereo not given) | -6.4 | 4 | 0 | 2.3% | -5 | 0.7
CC1CCCC(NC(=O)CSc2cccc[n+]2[O-])C1C (stereo not given) | 6.8 | -5 | -8 | -1.0% | -6 | 0.1
CCC(=O)c1ccc(OC)c(OC)c1O | 2.1 | 7 | 5 | 0.6% | -18 | -0.5
CCOC(=O)c1c(C)oc2ccc(N(C(=O)c3ccncc3)S(=O)(=O)c3ccc(Br)cc3)cc12 | / | 1 | / | ? | / | 2.4

Among those listed so far, these contain a nitro group on carbon:
SMILES | D2 ag | TRPML1 blocker | Six1-Eya2 blk | PINK1 modulator | D2 potentiator | TRPML1 ag
O=C(Nc1ccc(Nc2ccccc2)cc1)c1ccc(Cl)c([N+](=O)[O-])c1 | 5.8 | 0 | ? | 1.3% | -12 | 0.9
CCCCC(=O)N/N=C/c1ccc(-c2ccc([N+](=O)[O-])cc2)o1 | 2.9 | -5 | -10 | 7.9% | 9 | 3.0

Four entries from above, in CSV form:
mol,D2 ag,TRPML1 blocker,Six1-Eya2 blk,PINK1 modulator,D2 potentiator,TRPML1 ag
CCc1nc2nc(C)c(NS(=O)(=O)c3ccc(C)c(C)c3)c(=O)n2[nH]1,4.1,19,5,-1.5%,-7,0.5
Cc1nc2sc3c(c2c(=O)[nH]1)CCC3,-4.1,-9,-3,1.5%,8,-0.5
O=C(CSc1ccc2nnc(-c3ccc(F)cc3)n2n1)NCC1CCCO1 (stereo not given),-3.1,2,4,7.5%[38.3 µM],1,-0.2
COc1ccc(N2CCN(C(c3cc(OC)ccc3OC)c3nnnn3Cc3ccco3)CC2)cc1 (stereo not given),-3.8,4,?,-1.0%,-18,0.9
